MLL AF4-AF9 inh: inhibitors of AF4 peptide binding to AF9, primary screen, biochemical, AlphaScreen, biotin-AF4 peptide, FLAG-AF9, single point. Protein AF-9 (Homo sapiens), P42568. inhibition, % at 10 µM. 350,000 compounds, 0.47% hits. AID 651704, 2012;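 active = every replicate reaching a set inhibition limit, whatever the replicate mean, cut at about 25% in these data; inconclusive = mean inhibition reaches that limit but some replicates miss it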;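 note: 0% = plate neutral control median and 100% = total signal loss; the record names both 10 and 1 µM as test concentration; the first replicate is given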
Beta apoptosis: inhibitors of cytokine-induced beta cell apoptosis, primary screen, luminescence; AID 435005, 2010; 300,000 compounds, 0.8% hits; INS-1E cytokine-induced death, ATP luminescence, 48 h; percent of positive-control rescue, neutral wells zero; protection from apoptosis, % (concentration not given with the values);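 active = all replicates at 75% or more, or half of them and the mean; inconclusive = half reach 75% but not the mean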;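 note: 0% = cytokine-treated negative control wells and 100% = positive control rescue; higher means more ATP so stronger rescue from cytokine killing; wells of about 40 µL received 100 nL stock; the first replicate is given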
Vif TR-FRET: inhibitors of Vif binding to APOBEC3G peptide, primary screen, biochemical, TR-FRET, GST-Vif 1-94, biotin-A3G peptide, dose response retest (AID 1117319) | Virion infectivity factor (Human immunodeficiency virus type 1 group M subtype B (isolate … | TR-FRET GST-Vif / biotin-A3G peptide binding; higher % means a stronger effect; test concentration not given here; strong numbers were not always called active | inhibition, %; hits with a dose series show IC50 in µM | 260,000 compounds, 0.57% hits;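 active = above the screen mean plus three standard deviations and confirmed in dose response; inconclusive = results disagree or hit not tested in dose response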;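 note: Vif residues 1-94 fused to GST binding biotinylated APOBEC3G peptide 110-148; 0% = full assay without inhibitor and 100% = GST in place of GST-Vif; retest series ran down from 100 µM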
LANA-H2B inh: blockers of LANA interaction with H2A/H2B – biochemical, FP readout, HTS, primary screen. cell-free LANA-H2A/H2B peptide, fluorescence polarization. inhibition, % (no concentration beside the values). 320,000 compounds, 0.6% hits. AID 2629, 2010; in the data active = inhibition mostly above about 10%, no sharp cut-off; inactive = mostly below about 6.7%;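 note: stock transfer was 7.5 nL into about 10 µL; 0% = median of vehicle wells and 100% = median of positive control wells; one replicate is shown; the record names a cut of 25% in any replicate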
Target sequence (Q9QR71 whole entry, looked up): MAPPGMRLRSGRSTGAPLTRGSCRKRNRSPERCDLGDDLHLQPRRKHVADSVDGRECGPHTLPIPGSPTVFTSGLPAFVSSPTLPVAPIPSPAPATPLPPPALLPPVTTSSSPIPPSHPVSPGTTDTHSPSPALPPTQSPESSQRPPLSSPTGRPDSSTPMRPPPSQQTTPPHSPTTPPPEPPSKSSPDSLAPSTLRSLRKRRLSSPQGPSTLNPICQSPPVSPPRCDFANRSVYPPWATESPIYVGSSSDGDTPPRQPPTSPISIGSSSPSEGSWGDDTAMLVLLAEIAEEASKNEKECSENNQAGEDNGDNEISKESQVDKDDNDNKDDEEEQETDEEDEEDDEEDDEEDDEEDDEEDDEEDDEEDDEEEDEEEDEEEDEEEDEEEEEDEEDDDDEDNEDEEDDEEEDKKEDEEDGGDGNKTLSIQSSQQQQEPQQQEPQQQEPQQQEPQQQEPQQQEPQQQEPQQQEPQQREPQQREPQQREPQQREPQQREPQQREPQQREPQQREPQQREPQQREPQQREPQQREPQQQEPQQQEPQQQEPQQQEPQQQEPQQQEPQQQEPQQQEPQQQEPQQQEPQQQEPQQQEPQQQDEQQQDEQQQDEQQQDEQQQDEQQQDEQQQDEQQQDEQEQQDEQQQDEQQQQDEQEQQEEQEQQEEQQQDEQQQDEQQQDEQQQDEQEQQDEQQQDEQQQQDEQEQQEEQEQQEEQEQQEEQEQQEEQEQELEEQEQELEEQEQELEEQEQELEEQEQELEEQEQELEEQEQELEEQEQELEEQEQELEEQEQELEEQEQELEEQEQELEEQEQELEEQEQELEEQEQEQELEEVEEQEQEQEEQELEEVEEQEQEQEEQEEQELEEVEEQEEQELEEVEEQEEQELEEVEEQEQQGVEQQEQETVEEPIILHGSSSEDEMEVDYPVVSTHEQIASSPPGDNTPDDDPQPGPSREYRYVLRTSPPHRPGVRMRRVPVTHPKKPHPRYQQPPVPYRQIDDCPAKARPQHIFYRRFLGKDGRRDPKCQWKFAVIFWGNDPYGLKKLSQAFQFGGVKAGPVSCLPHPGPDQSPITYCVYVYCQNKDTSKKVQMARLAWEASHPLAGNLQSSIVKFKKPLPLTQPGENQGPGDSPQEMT
T cruzi inh: inhibitors of intracellular T. cruzi growth, primary screen, luminescence, NIH3T3 host cells. inhibition, % (concentration not given with the values). T. cruzi beta-gal in NIH3T3, 90 h. 300,000 compounds, 1.4% hits. AID 1885, 2009;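 active = mean inhibition across valid replicates above about 55%, limit read from the data; inconclusive = mean below that limit but half or more replicates reach it; inactive = mean below it, under half of replicates reach it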;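 note: signal also drops with host cell toxicity which is not excluded here; 0% = plate median of DMSO wells and 100% = zero luminescence signal; higher percent means less beta-gal luminescence so fewer parasites; stock transfer was 50 nL into about 50 µL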
RanGTP-Imp inh: inhibitors of RanGTP-importin-beta interaction, primary screen, biochemical, FRET, CFP-Ran, YFP-importin-beta, homogeneous; 300,000 compounds, 1.1% hits; AID 2216, 2009; inhibition, % (test concentration not listed); Ran GTPase (GTP-bound) - importin-beta complex; cell-free CFP-Ran/YFP-importin-beta FRET ratio;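 active = most replicates above 15%; inconclusive = exactly half above 15%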;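 note: 0% = DMSO wells and 100% = Ran loaded with GDP instead of GTP; wells of about 40 µL received 100 nL stock; the first replicate is given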
Bfl-1 A1 inh: caspase 3/7 activation in MEF A1-2A-BIM cells, primary screen, A1 inhibitor project, cell-based, luminescence, HTS; caspase activation, % (no concentration beside the values); Caspase-Glo 3/7 luminescence, 3 h; percent of clofoctol response, vehicle zero; 330,000 compounds, 0.066% hits;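 active = over half of replicate activation scores above 10%, or exactly half above 10 with the replicate mean above 10; inconclusive = replicate mean below 10 yet half the replicates above 10; inactive = over half of replicates below 10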;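 note: wells of about 30 µL received 50 nL stock; many hits fall short of the cut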
Calb FLC: C. albicans growth inhibition with fluconazole, primary screen, CaCi-2 strain, Alamar Blue fluorescence. C. albicans CaCi-2 (fluconazole-resistant clinical isolate) + fluconazole, 48 h. growth inhibition, % (concentration not given with the values). 300,000 compounds, 0.57% hits. AID 1979, 2009;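 active = most replicates above 75%; inconclusive = exactly half above 75%; inactive = most below 75%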;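 note: all wells also contain fluconazole at 8 µg/ml as a sub-toxic cotreatment; 0% = median of DMSO wells and 100% = median of geldanamycin control wells; wells of about 8 µL received 7.5 nL stock; the first replicate is given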
* marks the source's active call; other numbers are inactive results; ? = inconclusive; . = not tested or not shown; & = joins results of further samples. Outcome played no part in choosing rows; about 4.3% have a hit in one of these screens.

SMILES	MLL AF4-AF9 inh	Beta apoptosis	Vif TR-FRET	LANA-H2B inh	T cruzi inh	RanGTP-Imp inh	Bfl-1 A1 inh	Calb FLC
Fc1cccc(/C=N/Nc2ccc(Cl)nn2)c1	-6.4	0	-1%	-2.9	-9	-3.7	-0.6	.
CS(=O)(=O)c1cccc(C(=O)OCC(=O)Nc2ccc3c(c2)OCO3)c1	7.0	-1	-4%	0.5	.	.	-0.3	.
Cc1ccc(/C=N/NC(=O)c2cccc(NC(=O)c3ccccc3C)c2)o1	2.1	-10	2%	-5.1	5	-4.4	-0.2	-7
NC(=O)N1CCN(C(=O)c2ccco2)CC1	.	-6	2%	0.7	0	1.5	-0.3	-3
Cc1ccc(CNC(=O)Nc2ccccc2)c(C)c1	-18	0	.	4.7	-8	1.2	-2.0	-17
COc1ccc(C(=O)NCCc2nnc3ccc(SCC(=O)N4CCCCC4)nn23)cc1	4.3	-33	.	-4.9	-20	6.6	0.7	2
Cc1ccc(NC(=O)Cc2c[nH]c3ccccc23)cc1S(=O)(=O)N1CCCCCC1	.	5	.	-0.5	7	2.3	-0.2	-7
Cc1ccc(C)c(NC(=S)NCCN(C2CCCCC2)C2CCCC2)c1	-1.9	7	-4%	-3.5	24	1.0	0.2	-1
O=C(Cn1nc(C(=O)O)c2ccccc2c1=O)Nc1cccc(S(=O)(=O)N2CCCCC2)c1	0.8	-2	-6%	3.3	.	.	-1.4	.
COc1ccccc1CN(Cc1nc2ccccc2c(=O)[nH]1)C(=O)Nc1ccccc1C	.	-1	0%	-4.0	-3	-2.0	0.6	2
COC(=O)c1cc(NC(=S)N2CCN(c3ccccn3)CC2)cc(C(=O)OC)c1	0.1	5	-12%	-4.8	-1	2.8	0.1	15
CCOC(=O)C1=C(CNCCc2ccc(Cl)cc2)NC(=O)NC1c1ccc2c(c1)OCO2 (stereo not given)	.	-3	66%	0.8	57*	-5.3	-0.2	-7
Oc1ccc(/C(Cc2ccccn2)=N\Nc2ccccc2)c(O)c1	3.7	-14	-13%	-0.8	-9	-1.0	-0.7	-34
Cc1ccc(S(=O)(=O)N2CCN(C(=O)c3ccc4c(c3)OCO4)CC2)cc1	-2.6	-1	.	3.1	1	5.8	0.4	-19
CCOC(=O)C1CCN(c2ncnc3c2oc2ccc(Cl)cc23)CC1	.	-4	-2%	-1.1	6	-1.0	0.1	42
O=C(OCCc1cc2ccccc2c(=O)o1)c1ccc2c(c1)OCO2	0.0	-5	.	1.7	.	.	-1.4	.
COc1ccc(CC(=O)NC2CCSc3ccccc32)cc1OC (stereo not given)	-0.4	1	.	4.8	-16	-2.1	0.4	-1
c1ccc(-c2nc(-c3ccncc3)n[nH]2)nc1	-1.0	3	-6%	3.8	-6	3.7	-2.4	-6
Cc1cc(C)nc(/N=C(/NC(=O)Nc2ccc(Cl)c(Cl)c2)Nc2cccc(Cl)c2)n1	.	7	?	-4.1	-16	5.2	0.0	-1
OC1COC(O)C(O)C1O (stereo not given)	2.3	-1	.	-3.4	2	8.2	-0.7	-5
O=C(Nc1ccc(CN2CCS(=O)(=O)CC2)cc1)c1ccccc1	0.5	2	7%	-3.0	-2	-2.9	-3.8	-14
COc1ccc(NC(=S)NC2CCCCC2)cn1	-3.7	-5	.	-0.1	-19	1.6	1.2	-10
CC(=O)c1cccc(NC(=S)NCCc2ccc(Cl)cc2)c1	2.4	-2	?	-2.2	-8	1.0	-0.8	-4
Cc1ccc([N+](=O)[O-])cc1S(=O)(=O)Nc1cccc(S(=O)(=O)NC2=NCCC2)c1	-7.7	1	3%	0.6	.	.	-0.2	.
Cc1cc(C)[n+](C)n1CC(O)Cn1c2ccccc2c2ccccc21 (stereo not given)	1.9	-9	-9%	4.8	-16	1.3	0.5	-7
Cc1cccc2cc3c(N)c(C(=O)N4CCCc5ccccc54)sc3nc12	.	40	.	1.2	4	-18	-0.4	23
CC1CCCC(NS(=O)(=O)c2cc3c(cc2Cl)NC(=O)CO3)C1C (stereo not given)	5.4	-5	.	-6.7	5	4.2	0.3	1
O=C(COc1ccc([N+](=O)[O-])cc1Cl)NCCc1ccccc1	.	-3	4%	-1.7	4	-0.7	1.0	4
N#Cc1cccc(NC(=O)CC2CCCCC2)c1	-54	0	-4%	-1.4	1	0.3	0.2	8
Cc1ccc(Cl)cc1N1CCN(C(=O)C2CCN(S(=O)(=O)c3cccnc3)CC2)CC1	.	7	2%	4.3	13	6.6	-0.7	-1
CN1C(=O)CC(C(=O)O)SC1=Nc1cc(Cl)c(O)c(Cl)c1 (stereo not given)	.	-8	21%	2.9	-6	2.1	-0.5	12
N#CCCN(C(=O)COC(=O)CCc1nc2ccccc2c(=O)[nH]1)c1ccc(F)cc1	0.7	1	-12%	1.7	.	.	-1.0	.
NS(=O)(=O)c1ccc(CCNC(=O)C(=O)c2cn(CC(=O)N3CCOCC3)c3ccccc23)cc1	-3.4	2	-24%	-5.0	-7	-3.5	1.0	-2
Cc1ccc(NC(=O)CS(=O)CC(=O)N(c2ccc(C)cc2)C(C)C(=O)NC2CCCCC2)cc1 (stereo not given)	.	-7	?	1.2	-3	1.5	0.4	4
O=c1cc(-c2cccc(Br)c2)nc(-c2ccccc2F)o1	.	-20	11%	-2.1	-6	?	-0.1	9
Cc1c(C(=O)N2CCCCC2C)sc2ncnc(N3CCc4ccccc4C3)c12 (stereo not given)	-1.8	7	-9%	-12	4	4.7	1.0	11
O=C(O)c1ccc(N/N=C/c2ccc(-c3ccc(Br)cc3)o2)cc1	-0.3	-2	.	0.5	9	70*	0.8	17
CSc1cccc(NC(=S)N(CCC(C)C)C(C)c2ccncc2)c1 (stereo not given)	0.1	-6	4%	-6.4	-13	2.8	-0.4	-3
O=C(CNS(=O)(=O)c1ccccc1)N/N=C/c1ccccc1[N+](=O)[O-]	1.0	-4	.	2.3	-13	0.9	1.7	3
O=C(COC(=O)c1cc(=O)[nH]c(=O)[nH]1)Nc1cccc(Cl)c1	1.7	-2	.	-0.8	.	.	-0.4	.
CC(C)Cn1c(N)c(C(=O)COC(=O)c2cccnc2Cl)c(=O)n(C)c1=O	-0.1	-2	.	6.0	-11	0.8	-1.8	-18
C=C(C)Cn1c(=S)[nH]c2ccccc2c1=O	.	-5	-2%	1.0	-7	?	-0.1	8
CC(=O)c1ccc(OCCCC(=O)Nc2ccc(C)c(S(=O)(=O)N(C)C)c2)cc1	.	1	.	-1.2	-4	2.0	-0.7	-2
CCCCn1c(N)c(N(CCOC)C(=O)c2ccc(-c3ccc([N+](=O)[O-])cc3)o2)c(=O)[nH]c1=O	1.7	-13	.	0.4	-1	1.0	0.9	-3
Cc1cc(/C=N\NC(=O)COc2cccc3cccnc23)c(C)n1-c1ccc(Br)cc1	.	2	.	3.9	-13	.	-0.1	.
COc1ccc(CNC(=O)Cn2ncn3cccc3c2=O)cc1	-1.6	2	-2%	1.3	-16	2.4	-5.0	-3
Cc1c2c(nc3ccccc13)CCC(C(C)(C)C)C2 (stereo not given)	-4.7	14	.	2.8	57*	3.4	0.3	8
Cn1nc(C(C)(C)C)cc1C(=O)NNC(=O)c1ccc(C(F)(F)F)cc1	0.8	5	-10%	-5.2	-18	-0.4	0.1	-1
Cc1ccc(NC(=O)CSc2nnc(-c3ccccn3)n2N)cc1F	2.5	-14	-8%	0.0	-24	2.9	0.2	-25
CN(C(=O)COC(=O)c1cc([N+](=O)[O-])ccc1Sc1ccccc1)C1CCS(=O)(=O)C1 (stereo not given)	-0.3	1	.	0.3	1	0.1	0.0	-3
CC(C)CNC(=O)NC(=O)COC(=O)c1cccc(NS(=O)(=O)c2ccc(F)c(F)c2)c1	.	-11	.	-8.7	13	-0.5	0.4	-3
COc1ccc(CNC(=O)CN2C(=O)COc3ccc(S(=O)(=O)N4CCC(C)CC4)cc32)cc1	0.9	-1	.	3.5	-1	0.4	-2.0	2
COc1ccccc1-n1c(SCC(=O)OC(C)C)nc2cccnc21	-3.1	-4	0%	5.2	-3	-1.0	0.2	-8
CCOC(=O)NC(=O)/C(C#N)=C(/C)N(C)C	0.0	2	-6%	-2.8	-5	1.6	2.9	19
CCOC(=O)c1sc(NC(=O)C(CC)Sc2nnc3c4ccccc4n(CC)c3n2)nc1C (stereo not given)	4.2	0	12%	-2.4	-8	-1.0	0.4	-8
CCOc1ccccc1C(=O)NC1CCNCC1	-4.7	.	.	0.6	-8	1.3	-0.1	-5
Cc1cc(C)nc(Nc2cccc3ccccc23)n1	3.1	-9	.	-2.8	-3	0.3	0.7	13
CC1(C)Cc2c(C#N)c(OCC(=O)c3ccc(Cl)cc3)nc(-c3ccco3)c2CO1	.	-2	5%&0%	2.7	9	0.4	0.2	3
CONC(=O)c1cc(OCC(F)(F)F)ccc1OCC(F)(F)F	.	-1	4%	2.9	0	2.9	?	-3
O=C(Nc1ccsc1C(=O)O)c1cccc(Oc2ccccc2)c1	-3.8	3	.	5.3	-5	-2.3	-4.2	-1

Further records
SMILES	MLL AF4-AF9 inh	Beta apoptosis	Vif TR-FRET	LANA-H2B inh	T cruzi inh	RanGTP-Imp inh	Bfl-1 A1 inh	Calb FLC
Cc1ccc(S(=O)(=O)N2CCC(C(=O)Nc3ccc4c(c3)OCO4)CC2)cc1	.	6	15%	-1.7	11	2.9	-0.2	-4
Cc1cc(C)n(-c2nc(-n3nc(C)cc3C)c3c4c(sc3n2)COC(C)(C)C4)n1	.	1	-5%	-2.4	21	2.3	1.6	3
Cc1ccc(S(=O)(=O)/N=C(/c2ccc(F)cc2)N(C)C)cc1	4.4	-3	-9%	-0.2	3	2.1	0.5	-20
O=c1ccc2ccc(OCc3nnc(-c4ccccc4Br)o3)cc2o1	.	-13	2%	-4.2	2	-2.1	0.2	2
CC1(C)CC(O)C(CCC(O)c2ccccc2)C(C)(C)N1 (stereo not given)	.	-4	11%	-0.4	-6	0.7	0.2	5
O=c1c2ccccc2c(C=Nc2ccc(O)cc2)c(O)n1Cc1ccccc1	-0.6	7	.	-3.0	44	33*	-0.9	4
CCOc1ccc(NC(=O)CNC(=O)c2cn(-c3ccccc3OC)c(=O)c3ccccc23)cc1	.	1	7%	1.2	-3	6.1	1.5	8
COc1cc(C(=O)Nc2ccc3c(c2)OCO3)c([N+](=O)[O-])cc1OC	-6.8	3	.	2.4	-12	?	0.2	-8
COc1ccc(S(N)(=O)=O)cc1C(=O)OCC(=O)Nc1ncc(Cl)c(C)c1Cl	-1.2	-2	-8%	7.8	.	.	1.3	.
O=C(c1ccc(Cl)cc1)C1CCCN(Cc2cccn2-c2cccnc2)C1 (stereo not given)	12	-15	.	-3.0	58*	-1.5	-1.0	-2
CCOC(CNC(=O)c1ccc2c(c1)ncn2-c1ccccc1OC)OCC	-0.7	3	5%	-3.4	-5	-3.5	-0.4	4
